Screening data: PubChem, ICCB-Longwood Screening Facility, Harvard Medical School
Ecoli growth = E. coli growth inhibition; AID 1053175; 0.21% of 330,000 active; OD600 absorbance (test concentration not listed); Escherichia coli growth, OD600, 23 h; active compounds read low;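 active = OD600 absorbance below the run mean of sample wells minus 3.6 SD, in any replicate, cut at about 0.56 in these data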;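 also: stock transfer was 300 nL into about 60 µL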
UCH37 inh = human UCH37 deubiquitinating enzyme inhibition; inhibition, % (concentration not given with the values); 0.33% of 330,000 active; Q9Y5K5; purified proteasome/UCH37, Ub-AMC cleavage fluorescence;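 active = mean of two replicates above 20%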;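 also: 0% = compound-free wells with enzyme and 100% = wells lacking proteasome; stock transfer was 100 nL into about 20 µL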
Target sequence (Q9Y5K5 whole entry, looked up): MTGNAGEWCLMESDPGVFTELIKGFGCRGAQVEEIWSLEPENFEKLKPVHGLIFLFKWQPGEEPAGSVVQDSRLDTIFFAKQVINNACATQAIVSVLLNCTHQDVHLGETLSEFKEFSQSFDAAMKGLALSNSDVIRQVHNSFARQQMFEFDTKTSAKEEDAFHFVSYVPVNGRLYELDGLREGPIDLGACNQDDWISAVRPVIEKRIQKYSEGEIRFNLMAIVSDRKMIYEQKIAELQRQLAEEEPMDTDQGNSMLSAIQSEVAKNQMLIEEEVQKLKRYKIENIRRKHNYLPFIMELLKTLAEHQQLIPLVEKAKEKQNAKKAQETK
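system = Proteasome-associated human UCH37 deubiquitinase | amount = 0.15 nM proteasome as dispensed | medium = pH 7.4 Tris-HCl (50 mM) with ovalbumin, ATP-MgCl2, DTT | incubation = 30 min preincubation with enzyme, 25 min cleavage at room temperature | detection = AMC fluorescence 355/460 nm | read-out basis = percent inhibition | controls = no-proteasome and no-compound wells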
* hit, by the source's call. These rows are one share of the data; the hit share may differ from the screen's.

compound	Ecoli growth	UCH37 inh
CCC(=O)NN=C(C)CC(=O)Nc1ccccc1-c1ccccc1	0.69	4.2
O=C(CON=Cc1ccccc1OC(F)F)NC1CCCC1	0.69	1.2
CC(C)c1ccc(C=NNC(=O)c2nnn(-c3nonc3N)c2CN(C)C2CCCCC2)cc1	0.7	1.1
CC(C)(Cc1ccc(O)cc1)NC(=O)CC(=O)NN=Cc1ccc(Cl)cc1	0.64	2.1
Cc1nn(-c2ccccc2)c(N2CCCCC2)c1C=NO	0.67	1.0
COC(=O)c1cccc2c1-c1ccccc1C2=NNC(N)=O	0.66	2.9
CC(=NNS(=O)(=O)c1ccc(C)c(C)c1)c1c[nH]c2ccccc12	0.69	3.6
C=CCn1c(Cn2nnc3ccccc32)nnc1SCC(=O)NN=Cc1cc(Br)cc(OC)c1O	0.74	9.6
CCOC(=O)c1cc(C)sc1N=CC1=C(O)CCCC1=O	0.69	5.4
O=C(O)c1ccc(C=Nn2cc(-c3ccccc3)[nH]c2=S)cc1	0.64	9.3
Nc1nonc1-n1nnc(C(=O)NN=Cc2cccnc2)c1CSc1ccc(Cl)cc1	0.68	5.1
NS(=O)(=O)c1ccc(NN=C2CCCc3ccccc32)c([N+](=O)[O-])c1	0.71	9.6
CC(=NNC(=O)c1ccccc1)c1ccc(C)c([N+](=O)[O-])c1	0.64	-0.3
S=C(NN=C1C2CN3CCN(C2)CC1(c1ccccc1)C3)Nc1ccccc1	0.71	7.0
Nc1nonc1-n1nnc(C(=O)NN=Cc2ccccn2)c1-c1ccccc1	0.64	1.1
CCC(=O)N(C)CCc1cc2c(c(OC)c1C=NNC(=O)c1ccc(Br)cc1)OCO2	0.71	3.6
COCCCn1c(=C(C#N)C(=O)NCCOC)sc(=Cc2ccccc2OC(F)F)c1=O	0.69	-9.4
CC(=O)N(N=C1Sc2ccccc2C1=O)c1cccc(C)c1	0.72	81*
COc1ccc(CCCC(=O)NN=Cc2cccs2)cc1	0.65	7.6
Cc1cc(Cl)ccc1OCC(=O)NN=Cc1ccncc1	0.64	3.3
CC(=NOC(=O)Nc1ccccc1)c1ccc(C)cc1	0.64	2.9
O=S(=O)(N=C(Nc1ccccc1)C(F)(F)F)c1ccccc1	0.71	-1.1
COc1ccc(S(=O)(=O)NN=Cc2ccccc2F)cc1	0.68	2.1
C/C(C=NNC(=O)c1cccs1)=C\c1ccco1	0.63	-5.5
CCC[C@H]1NC(=O)[C@H](C)N(C)C(=O)C(C)(C)C(=O)C(C)NC(=O)[C@H](Cc2ccc(OC)cc2)N(C)C(=O)[C@H](C(C)C)N(C)C(=O)CNC(=O)[C@H](CC(C)C)N(C)C(=O)CNC(=O)[C@H]([C@@H](C)CC)OC(=O)[C@H]1C (stereo partly specified)	0.69	-0.7
COc1ccc(C=NNc2cc(C)nc3ccc(OC)cc23)c(OC)c1	0.51	-48
CCOc1ccccc1C(=O)NN=Cc1coc2ccc(C)cc2c1=O	0.65	-51
COc1ccc(C(C)=NNc2nc3ccccc3nc2C)cc1OC	0.72	8.2
O=C(NN=Cc1ccc([N+](=O)[O-])cc1)c1cccc2cc[nH]c12	0.74	1.8
Cc1cccc(C(=O)Oc2ccc(C=NNC(=O)c3ccccc3O)cc2)c1	0.69	-124

Sorted by SMILES length (high to low): some entries from above.
compound	Ecoli growth	UCH37 inh
COc1ccc(C=NNc2cc(C)nc3ccc(OC)cc23)c(OC)c1	0.51	-48
O=S(=O)(N=C(Nc1ccccc1)C(F)(F)F)c1ccccc1	0.71	-1.1
COc1ccc(S(=O)(=O)NN=Cc2ccccc2F)cc1	0.68	2.1

(more compounds)
compound	Ecoli growth	UCH37 inh
COc1ccc(C=NNC(=O)c2cccc(NC(=O)c3ccccc3Cl)c2)cc1OC	0.67	-232
O=C(NN=Cc1cccc(F)c1)NC1CCCCC1	0.71	1.7
CC(=NNc1cc(C)nc(-c2ccccc2O)n1)c1ccccc1O	0.71	-3.4
O=C(CCN1CCCCC1)NN=Cc1c[nH]c2ccccc12	0.65	7.6
O=[N+]([O-])c1cccc(C=NN2CCN(Cc3ccc(Cl)cc3)CC2)c1	0.65	-0.4
Fc1ccc(C=NNc2nc3ccccc3[nH]2)cc1F	0.62	3.7
O=[N+]([O-])c1ccc(C=NNc2ncccc2[N+](=O)[O-])s1	0.64	11
O=C(CC(=O)Nc1ccc(Cl)c(Cl)c1)NN=Cc1ccc(O)cc1	0.66	-2.6
COc1cc(C=Nn2c(C)nc3ccccc3c2=O)ccc1O	0.66	12
CCOC(=O)C1=C(C)N=C(N=CN(C)C)SC1c1ccccc1 (stereo unspecified)	0.67	7.3

Three entries drawn at random from the list so far:
compound	Ecoli growth	UCH37 inh
CC(=NNC(=O)c1ccccc1)c1ccc(C)c([N+](=O)[O-])c1	0.64	-0.3
CC(=NNS(=O)(=O)c1ccc(C)c(C)c1)c1c[nH]c2ccccc12	0.69	3.6
Fc1ccc(C=NNc2nc3ccccc3[nH]2)cc1F	0.62	3.7

Continued:
compound	Ecoli growth	UCH37 inh
COc1ccc(NN=C(N=Nc2nc(C)cc(=O)[nH]2)c2ccccc2)cc1	0.74	0.9
CC(=NNC(=O)c1cccc(S(=O)(=O)N2CCOCC2)c1)c1ccc(OC(F)F)cc1	0.69	0.4
CN(N=Cc1ccc(O)c(O)c1)c1nc(-c2ccccc2)cc(-c2ccccc2)n1	0.7	6.6
O=C(C(=NO)n1cncn1)c1ccc(Br)cc1Br	0.58	2.4
CC(/C=C/c1ccc2c(c1)OCO2)=NNC(=O)c1ccncc1	0.66	17
NC(=NOC(=O)Cc1ccccc1[N+](=O)[O-])c1ccc(Br)cc1	0.72	1.0
CCNC(=O)ON=C1CCCCC1c1ccc([N+](=O)[O-])cc1[N+](=O)[O-] (stereo unspecified)	0.64	7.5
Cc1cccc(C(=O)Oc2ccc(C=NO)cc2)c1	0.67	3.3
CN(C)Cc1c(C(=O)NN=Cc2ccncc2)nnn1-c1nonc1N	0.64	-0.1
CSCCC(N=Cc1c(O)n(-c2ccc(F)cc2)c(=O)[nH]c1=O)C(=O)O (stereo unspecified)	0.74	1.6
CCOC(=O)C(=NNc1ccccc1Cl)N(C)C1CCCCC1	0.62	1.1
Cc1ccc(C=NNC(=O)Cn2nnc3ccccc32)o1	0.73	5.9
CC(=NNc1nc(-c2ccccc2F)nc2ccccc12)c1ccccc1O	0.66	2.8
COc1ccc(Cl)cc1NC(=O)CC(C)=NNC(=O)COc1ccc(C)cc1	0.67	2.2
COc1ccc2c(c1)c(C(=O)NN=Cc1ccc(OC)c(OC)c1)c(C)n2C	0.69	0.5
CCn1c(SCC(=O)NN=Cc2c[nH]c3ccccc23)nnc1-c1ccc(C)cc1	0.71	3.6
CN1CCN(N=Cc2nc(-c3ccccc3)n3ccccc23)CC1	0.69	5.5
COc1ccccc1N(CC(=O)NN=C(C)c1ccc(F)cc1)S(=O)(=O)c1ccccc1	0.74	1.4
O=C(CCC(=O)Nc1ccc(Cl)cc1)NN=Cc1ccc2c(c1)OCO2	0.69	0.1
S=c1[nH]nc(-c2ccco2)n1N=Cc1ccccn1	0.68	1.8
COc1cc(C=NNC(=O)C2(O)c3ccccc3-c3ccccc32)ccc1O	0.66	-0.1
CCOC(=O)c1c(N=Cc2ccc(OC)cc2O)sc2c1CCN(C)C2	0.71	3.4
CC(=NNC(=O)CC1N=C(Cc2ccccc2)NNC1=O)c1ccncc1 (stereo unspecified)	0.68	5.8
Cc1ccc(S(=O)(=O)NN=Cc2cn(C)nc2C)cc1	0.74	1.6
O=C(NN=Cc1ccc(CN(Cc2ccc(Cl)cc2)S(=O)(=O)c2ccccc2)o1)C(=O)Nc1ccc(F)cc1	0.74	-2.3
O=C(CNC(=O)c1ccc2c(c1)OCO2)NN=Cc1cc(Br)ccc1O	0.7	2.6
Cc1cccc(C=NNc2nnc(-c3ccccc3)c(=O)[nH]2)c1	0.77	2.4
CC(=NNc1ccccc1[N+](=O)[O-])c1ccc([N+](=O)[O-])cc1	0.71	2.8
COc1cc(C=NNC(=O)c2cc(-c3ccccc3)sc2N)cc(OC)c1OC	0.67	-61
CC(CC1CC2=C(CC1(C)C)C(C)(C)CCC2)=NNC(N)=S (stereo unspecified)	0.69	4.1
COc1cc(C=Nn2nnnc2N)ccc1OCc1ccc(F)cc1	0.71	-62
COc1ccc(C=NNc2nncn2N)cc1Br	0.65	14
COc1cc(C(=O)NCC(=O)NN=Cc2cccs2)cc(OC)c1OC	0.7	1.1
NC(=NOC(=O)c1cc([N+](=O)[O-])ccc1Cl)c1ccccn1	0.66	2.4
Cc1ccc(CON=CCc2snc(Sc3ncc(C(F)(F)F)cc3Cl)c2C#N)cc1	0.7	-0.8
Cc1ccccc1C(=O)Nc1cccc(C(=O)NN=Cc2cc(Cl)cc([N+](=O)[O-])c2O)c1	0.66	2.8
COc1ccc(C=NNC(=O)CN(Cc2ccccc2)S(=O)(=O)c2ccc3c(c2)OCCO3)cc1	0.67	0.9
CCc1ccc(-c2cc(C(=O)NN=Cc3ccccn3)[nH]n2)cc1	0.65	3.4
CN1/C(=C\C=NNC(=O)c2cccnc2)C(C)(C)c2ccccc21	0.68	11
NC(=S)NN=Cc1c(OCc2ccccc2Cl)ccc2ccccc12	0.65	-1.5
CCOC(=O)NN=C(C)c1ccc(Oc2ncccn2)cc1	0.68	2.9
CCN1C(=O)C(=c2sc(=C3Sc4ccccc4N3C)c(=O)n2C)N(C)C1=S	0.72	4.4
ON=Cc1cccc[n+]1CCCCCC[n+]1ccccc1C=NO	0.69	8.2
COc1ccc(S(=O)(=O)N(CC(=O)NN=Cc2ccccc2C(=O)O)c2ccccc2OC)cc1	0.67	1.6
O=C(Cn1cc(C(F)(F)F)ccc1=O)NN=Cc1ccc(O)cc1	0.71	1.6
NC(=S)NN=Cc1ccc(C(F)(F)F)cc1	0.62	-0.3
O=[N+]([O-])c1cc(C=NO)ccc1Oc1ccccc1Cl	0.68	3.3
COc1cc(C=Nn2c(COc3ccccc3)n[nH]c2=S)cc(OC)c1OC(C)=O	0.68	4.8
CC(=NNC(=O)c1nnn(-c2nonc2N)c1CN1CCCCCC1)c1ccc(Br)cc1	0.67	2.0
CC(=O)ON=Cc1c(C)c(C=O)n2ccccc12	0.68	6.4

Further structures.
compound	Ecoli growth	UCH37 inh
O=C(NN=Cc1ccccc1C(=O)O)c1cccc(S(=O)(=O)N2CCCCC2)c1	0.68	5.4
CC(=NNc1ccc2nncn2n1)c1ccccn1	0.51	9.5
Cc1cc(C(=O)NN=Cc2cc(Cl)cc([N+](=O)[O-])c2O)n[nH]1	0.66	13
N#Cc1ccc(C=NNC(=O)c2cccc(S(=O)(=O)N3CCOCC3)c2)cc1	0.7	7.3
O=C(NN=Cc1cccc2ccccc12)c1cccc(F)c1	0.72	-0.2
CC(=NN1CCN(Cc2ccccc2Cl)CC1)c1ccc(F)cc1	0.62	0.6
CCCCCCCCCCS(=O)(=O)NN=Cc1ccc([N+](=O)[O-])cc1	0.65	4.0
CC(=NNC(=O)Cn1nnc2ccccc21)c1ccco1	0.66	-0.3
Cc1nc2ccccn2c1C(=O)NN=Cc1ccc([N+](=O)[O-])cc1	0.7	4.1
O=C(NN=Cc1ccc([N+](=O)[O-])o1)c1cc(-c2ccc(-c3ccccc3)cc2)nc2ccccc12	0.73	1.6
Cc1[nH]c2ccccc2c1C=NNc1ccc([N+](=O)[O-])cc1	0.76	8.5
NC(=NO)C(c1ccccc1)c1ccccc1	0.66	0.5
O=C(O)CCC(=NNC(=O)c1ccc(F)cc1)c1ccc(Br)cc1	0.68	5.2
O=[N+]([O-])c1ccccc1C=NNC1=NS(=O)(=O)c2ccccc21	0.69	13
Cc1ccc(C(=O)NN=C2CCc3ccccc32)c(C)c1	0.68	0.3
COc1cc(C=NNC(=O)c2ccoc2C)cc(OC)c1O	0.69	2.7
O=C(CSc1ccccc1)NN=Cc1ccccc1O	0.67	-2.3
COc1cccc2cc(C(C)=NNc3nc(-c4cc(C)ccc4C)cs3)c(=O)oc12	0.71	6.5
O=C(NN=Cc1ccc(Br)s1)c1ccccc1[N+](=O)[O-]	0.66	8.9
CCCc1nc2ccccc2c(=O)n1N=Cc1c(C)[nH]n(-c2ccc(C)cc2)c1=O	0.73	8.0
